# Ecoli rRNA inh: inhibits bacterial ribosomal RNA function over humanized ribosomes. E. coli WT GFP vs humanized-ribosome RFP mutants, fluorescence, 24 h; hits give low values; DMSO median 0, no signal -100. GFP signal change (wild-type ribosome), % (no concentration beside the values). actives 1.6% (n = 350,000);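 active = significant combined selectivity score with lowered wild-type GFP, culture density cut under 30%, mutant RFP and density less affected; inactive = any of these conditions unmet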; also: one replicate is shown; some compounds called inactive have numbers as strong as hits
# T cruzi inh: T. cruzi replication inhibition; actives 1.4% (n = 300,000); inhibition, % (no concentration beside the values); T. cruzi beta-gal in NIH3T3, luminescence, 90 h;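 active = mean inhibition across valid replicates above about 55%, limit read from the data; inconclusive = mean below that limit but half or more replicates reach it; inactive = mean below it, under half of replicates reach it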;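 also: signal also drops with host cell toxicity which is not excluded here; 0% = plate median of DMSO wells and 100% = zero luminescence signal; higher percent means less beta-gal luminescence so fewer parasites; stock transfer was 50 nL into about 50 µL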
# Vif TR-FRET: HIV-1 Vif–A3G interaction blockers – biochemical, TR-FRET, GST-Vif 1-94, biotin-A3G peptide, dose response retest, primary screen (AID 1117319). TR-FRET GST-Vif / biotin-A3G peptide binding; higher % means a stronger effect; test concentration not given here; strong numbers were not always called active. actives 0.57% (n = 260,000). one-dose inhibition, %; IC50 in µM for titrated hits;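 active = above the screen mean plus three standard deviations and confirmed in dose response; inconclusive = results disagree or hit not tested in dose response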;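 also: Vif residues 1-94 fused to GST binding biotinylated APOBEC3G peptide 110-148; 0% = full assay without inhibitor and 100% = GST in place of GST-Vif; retest series ran down from 100 µM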
# Bfl-1 A1 inh: inhibitors of the anti-apoptotic protein A1, read as caspase activation | MEF A1-2A-BIM cells, Caspase-Glo 3/7 luminescence, 3 h; percent of clofoctol response, vehicle zero | caspase activation, % (test concentration not listed) | actives 0.066% (n = 330,000);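 active = over half of replicate activation scores above 10%, or exactly half above 10 with the replicate mean above 10; inconclusive = replicate mean below 10 yet half the replicates above 10; inactive = over half of replicates below 10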;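 also: wells of about 30 µL received 50 nL stock; many hits fall short of the cut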
# Beta cell apopt: beta cell apoptosis inhibition; INS-1E cytokine-induced death, ATP luminescence, 48 h; percent of positive-control rescue, neutral wells zero; protection from apoptosis, % (test concentration not listed); actives 0.8% (n = 300,000);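 active = all replicates at 75% or more, or half of them and the mean; inconclusive = half reach 75% but not the mean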;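 also: 0% = cytokine-treated negative control wells and 100% = positive control rescue; higher means more ATP so stronger rescue from cytokine killing; wells of about 40 µL received 100 nL stock; the first replicate is given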
# RanGTP-Impb inh: disruptors of Ran-importin-beta complex formation – biochemical, FRET, CFP-Ran, YFP-importin-beta, homogeneous, primary screen. inhibition, % (test concentration not listed). AID 2216. actives 1.1% (n = 300,000). cell-free CFP-Ran/YFP-importin-beta FRET ratio;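 active = most replicates above 15%; inconclusive = exactly half above 15%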;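 also: 0% = DMSO wells and 100% = Ran loaded with GDP instead of GTP; wells of about 40 µL received 100 nL stock; the first replicate is given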
# MLL AF4-AF9 inh: MLL-AF4/AF9 protein interaction inhibition | P42568 | AlphaScreen, biotin-AF4 peptide binding to FLAG-AF9 | inhibition, % at 10 µM | actives 0.47% (n = 350,000);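 active = every replicate reaching a set inhibition limit, whatever the replicate mean, cut at about 25% in these data; inconclusive = mean inhibition reaches that limit but some replicates miss it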;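 also: 0% = plate neutral control median and 100% = total signal loss; the record names both 10 and 1 µM as test concentration; the first replicate is given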
# Target sequence (P42568 whole entry, looked up): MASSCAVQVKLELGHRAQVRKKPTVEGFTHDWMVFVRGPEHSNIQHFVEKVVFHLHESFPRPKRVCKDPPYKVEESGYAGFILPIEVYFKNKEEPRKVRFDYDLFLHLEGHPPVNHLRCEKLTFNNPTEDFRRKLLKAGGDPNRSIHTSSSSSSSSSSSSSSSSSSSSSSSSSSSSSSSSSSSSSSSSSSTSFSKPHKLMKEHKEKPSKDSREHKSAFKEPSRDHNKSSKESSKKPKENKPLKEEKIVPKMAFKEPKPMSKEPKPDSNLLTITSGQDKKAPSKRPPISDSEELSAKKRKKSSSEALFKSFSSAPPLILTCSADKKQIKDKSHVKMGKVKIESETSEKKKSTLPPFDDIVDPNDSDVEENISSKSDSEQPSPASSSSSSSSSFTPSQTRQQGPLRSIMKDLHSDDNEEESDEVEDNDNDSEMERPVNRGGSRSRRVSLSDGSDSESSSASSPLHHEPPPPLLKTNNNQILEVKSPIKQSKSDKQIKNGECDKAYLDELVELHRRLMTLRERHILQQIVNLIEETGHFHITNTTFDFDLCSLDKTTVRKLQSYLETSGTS
# Calb FLC: C. albicans growth modulation with fluconazole | AID 1979 | actives 0.57% (n = 300,000) | C. albicans CaCi-2 (fluconazole-resistant clinical isolate) + fluconazole, Alamar Blue growth, 48 h | growth inhibition, % (no concentration beside the values);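 active = most replicates above 75%; inconclusive = exactly half above 75%; inactive = most below 75%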;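 also: all wells also contain fluconazole at 8 µg/ml as a sub-toxic cotreatment; 0% = median of DMSO wells and 100% = median of geldanamycin control wells; wells of about 8 µL received 7.5 nL stock; the first replicate is given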
# Ecoli rRNA inh OD600: further read-out of Ecoli rRNA inh, marked with its call; OD600 change, %; measured here: OD600 growth;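 optical density of the mix in the first replicate; 0 = DMSO median and -100 = no signal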
# Ecoli rRNA inh RFP: also measured in Ecoli rRNA inh; calls as there; RFP signal change, %; measured here: RFP humanized mutant strains;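 first replicate; 0 = DMSO median and -100 = no signal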
# Starred values were filed as active, the others as inactive; ? = inconclusive; . = not tested or not shown; & = joins results of further samples.
SMILES,Ecoli rRNA inh,Ecoli rRNA inh OD600,Ecoli rRNA inh RFP,T cruzi inh,Vif TR-FRET,Bfl-1 A1 inh,Beta cell apopt,RanGTP-Impb inh,MLL AF4-AF9 inh,Calb FLC
CC(=O)Nc1cccc(C(=O)OCC(=O)NCc2cc(C)c(O)c(C)c2)c1,8,15,0.3,-7,-8%,0.2,-7,-2.7,0.5,1
CCOC(=O)c1[nH]c(C)c(C(=O)NC2CCCCC2)c1C,3,3,3.3,-7,7%,-0.4,1,-0.4,-6.2,-5
CCOc1nc(NCCO)nc(NCCC2=CCCCC2)n1,.,.,.,7,-6%,3.8,-1,1.8,.,-6
O=C(CSc1nnc(COc2ccccc2)o1)NC1CC2CCC1C2 (stereo not given),-8,-7,3.3,-6,.,1.1,1,4.9,-2.1,3
COc1ccc(NC(=O)Cn2nc3n(c2=S)CCC3)cc1,.,.,.,.,1%,-0.1,2,4.0,.,-3
Cn1c(SCC(=O)Nc2ccc(Br)cc2)nc(O)cc1=O,10,4,22,-13,-6%,-1.0,.,2.6,-0.4,0
CC(C)c1ccc(NC2CCCN(C(=O)CCN3CCCCC3=O)C2)cc1 (stereo not given),5,3,-0.4,-15,.,0.4,1,4.4,-2.3,2
Cc1ccc(S(=O)(=O)N2CCOCC2)cc1NC(=O)COc1ccc(C(=O)c2ccccc2)cc1,-5,-10,-0.1,.,-2%,-0.7,-1,.,3.4,.
Cc1ccc(C2c3[nH]c4ccccc4c3C[C@H]3C(=O)N(c4ccccc4C(=O)N4CCC(C(=O)O)CC4)C(=O)N23)cc1 (stereo not given in full),-11,-12,-4.2,2,.,0.3,-2,7.9,2.0,3
Cc1cc(C)n2nc(CC(=O)NNC(=O)c3ccc(N(C)C)cc3)nc2n1,1,8,-0.6,-17,.,-0.5,.,4.9,-0.4,-1
Cc1ccc(SCCNC(=O)c2cccc([N+](=O)[O-])c2C)cc1,.,.,.,4,69%,1.5,5,?,.,-2
COc1cccc(-n2c(CN3CCN(c4ccccc4)CC3)nc3ccc([N+](=O)[O-])cc3c2=O)c1,5,0,-7.6,35,?,0.1,0,1.4,-0.5,5
CC(C)c1cc(N2CCN(C(=O)c3ccco3)CC2)n2c(nc3ccccc32)c1C#N,2,5,1.6,17,-4%,-0.1,-6,?,-12,5
Cn1c(COc2ccccc2O)[n+](C)c2ccccc21,4,12,-2.3,-1,4%,1.1,-1,-1.0,-1.8,15
Cc1cccc(NC(=O)c2ccccc2OCC(=O)N2CCOCC2)c1C,10,8,-1.5,-7,0%,0.4,0,3.2,-0.9,5
COc1ccc(N2CCN(C(=O)CCCN3C(=O)c4cccc5cccc(c45)C3=O)CC2)cc1,.,.,.,75*,7%,-0.4,9,-1.2,.,8
O=C(Nc1ccccc1C(F)(F)F)N1CCN(c2ccc3nncn3n2)CC1,0,3,-11,-11,3%,1.0,-9,1.4,-21,3
Cc1ccc(C(=O)Nc2ccncc2)o1,.,.,.,-13,0%,-2.1,-5,-1.8,.,-4
Cc1ccc(C)c(NC(=O)c2cc(C)nc3ccccc23)c1,5,4,-0.7,-19,.,-0.1,-1,-2.3,-2.4,-6
CC(C)(C)C(=O)c1no[n+]([O-])c1/C(=N/O)C(C)(C)C,-12,-33,-1.0,-5,2%,0.2,7,-0.7,.,5
COc1cccc(NC(=O)COC(=O)Cn2c(C)csc2=O)c1,10,10,1.4,.,1%,0.4,-3,.,0.2,.
CCCC(=O)Nc1ccc(NC(=O)c2ccccc2F)cn1,-1,0,-2.4,-2,-14%,-1.5,.,-0.1,-3.2,-14
COc1ccccc1CNC(=O)CN1C(=O)CSc2ccc(S(=O)(=O)N3CCCC3)cc21,-17,-16,-0.9,6,0%,0.3,0,?,0.4,-5
Cc1ccc(C)c(NC(=O)c2nnn(Cc3ccccc3C)c2N)c1,.,.,.,4,2%,0.6,4,-0.6,.,-24
COc1ccc(CCNC(=S)N2CCN(S(=O)(=O)c3cccc(F)c3)CC2)cc1,6,16,-1.6,-13,-8%,-0.3,.,-1.1,-1.2,-4
CC(C)(C)NC(=O)CN(C(=O)CS(=O)CC(=O)Nc1ccc(F)cc1)c1ccc(F)c(Cl)c1 (stereo not given),.,.,.,-5,1%&-7%,0.7,-8,-4.9,.,5
O=C(Nc1ccnc(-c2cccnc2)n1)c1ccc(Cl)c(Cl)c1,.,.,.,2,30%,.,.,5.3,.,-4
COc1ccc(OC)c(NC(=O)c2csc(Cl)c2OC)c1,-40,-50,-1.5,26,5%,0.1,2,?,0.7,12
Cc1ccc(C(=O)c2cn[nH]c2-c2cc(Cl)ccc2O)cc1,.,.,.,-17,3%,-0.4,-8,-2.9,.,13
CCN(C(=O)COc1ccc(C(=O)c2ccccc2)cc1)c1ccccc1,-9,-38,-1.5,15,-1%,-3.1,8,?,4.2,20
C=CCN(CC=C)C(=O)CN1C(=O)NC(c2ccccc2)(c2ccccc2)C1=O,2,8,0.3,2,4%,-1.2,.,-0.3,-2.9,-12
COC(=O)Cc1cc(=O)[nH]c(/N=C(\N)Nc2ccccc2C)n1,.,.,.,-8,-7%,-0.2,0,0.2,.,-16
Cc1cc(C)n(C(=O)c2cc3c(s2)CCCC3)n1,.,.,.,2,-7%,-1.9,.,4.6,.,-23
CCOC(=O)C1(CCOc2ccccc2)CCN(Cc2cccc(-n3cccn3)c2)CC1,-31,-63,1.5,38,16%,0.2,12,6.0,5.9,27
CC1CCCN(CC(O)COc2ccc(-c3ccccc3)cc2)C1 (stereo not given),-3,-2,1.8,-3,.,0.6,6,-0.3,1.2,-32
Cc1ccccc1OCC(=O)NCC(=O)OCc1ccc(Br)cc1,-6,-30,0.2,-13,8%,-0.4,-4,0.5,-2.2,-3
CCOc1ccc2nc(NC(=O)c3cccc(-c4cc5ccccc5oc4=O)c3)sc2c1,12,12,1.7,30,?,2.0,81*,1.7,-9.3,9
Cc1cnn(C(=S)NCC2CCCO2)c1 (stereo not given),.,.,.,-9,21%,-0.2,-29,-3.2,.,14
O=C(N1CCCC1)C12CCC3CC(CC(C3)C1)C2,.,.,.,1,18%,0.6,-6,7.4,.,7
O=C(N1CCCCC1)N1CCCN(C(=O)N2CCCCC2)CC1,.,.,.,5,-1%,-0.3,-3,-3.2,.,-12
CC(C)(C)c1ccc(C(=O)OCc2c(-c3ccccc3)ncc3ccccc23)cc1,1,5,-0.5,.,1%,-0.3,8,.,-22,.
CN(C)c1ccc(C(=O)/C=C/c2ccco2)cc1,.,.,.,2,.,-2.0,0,?,.,-1
O=C(CN1CCCN(S(=O)(=O)c2ccc(Br)cc2)CC1)Nc1ccc2c(c1)OCO2,.,.,.,-7,27%,.,.,0.3,.,-3
COc1ccccc1-n1cc(CN2CCN(CC=C(C)C)C(CCO)C2)cn1 (stereo not given),13,5,-2.4,3,19%,0.4,-1,5.2,3.3,-6
CC(=O)Nc1ccc(S(=O)(=O)Nc2nccc(/C=C/c3ccc(Cl)cc3)n2)cc1,.,.,.,-8,4%,-0.5,1,2.3,-5.9,13
CC(C(=O)NCCS(=O)(=O)c1ccc(Br)cc1)S(=O)(=O)c1ccc(Cl)cc1 (stereo not given),3,7,2.0,-8,-8%,0.6,-2,-2.4,-2.9,-5
COc1ccc(S(=O)(=O)N(C)C[C@H]2Oc3ccc(NS(=O)(=O)c4ccccc4)cc3CC(=O)N([C@H](C)CO)C[C@@H]2C)cc1,-7&-3,-3&-6,-1.2&-10,.,.,-0.6,-2,.,-0.5,.
CCn1c(SCC(=O)Nc2ccc(OC)cc2)nc2nc3c(cc2c1=O)COC(C)(C)C3,-1,0,1.1,.,7%,0.2,3,1.0,-4.0,41
O=C(c1ccccc1)N1CCC(c2nc3c(nnn3Cc3ccco3)c(=O)[nH]2)CC1,2,-8,-1.5,-10,-4%,.,.,8.5,-10,-1
Cc1ccccc1-c1nc(CS(=O)CC(=O)NC2CC2)c(C)o1 (stereo not given),7,12,3.8,-23,0%,0.0,-5,-1.1,0.7,-1
CC1CCCCC1NC(=O)c1ccc(S(=O)(=O)NCC2CCCO2)cc1 (stereo not given),2,1,-0.8,-9,10%,1.2,-1,0.0,-1.0,27
CCOC(=O)c1cc(C)n(Cc2cccc(OC)c2OC)c1C,.,.,.,37,24%,1.0,-5,3.1,.,14
COc1ccccc1NC(=O)N(Cc1ccccc1)C1=NCC(C)S1 (stereo not given),.,.,.,0,-5%,0.5,-9,-1.5,.,-1
N#Cc1nc(-c2cccc3ccccc23)oc1NCCN1CCCCC1,.,.,.,49,-3%,-1.1,9,6.8,.,-24
O=C(C1=COCCO1)N1CCN(c2nc3ccc([N+](=O)[O-])cc3s2)CC1,6,1,-2.1,0,5%,1.1,-2,-4.6,-3.8,27
Cc1ccc(OCC(=O)Oc2c(C)cccc2C)cc1,-1,8,-2.4,-6,.,0.6,.,-3.3,-18,14
O=C(CN(C(=O)CCC(=O)Nc1ccccn1)c1ccccc1F)NCc1ccc2c(c1)OCO2,-2,-2,-0.8,4,.,-0.2,1,6.2,-1.4,4
COC(=O)c1sccc1NS(=O)(=O)c1ccc(OC)cc1,.,.,.,-8,2%,0.6,-5,1.7,.,30
CCOC(=O)C(CC)n1cnc2c(oc3ccccc32)c1=O (stereo not given),.,.,.,-1,0%,0.5,7,4.7,.,18
Cc1ccc(-n2c(SCC(=O)N3CCOCC3)nnc2-c2ccncc2)cc1C,1,-4,-6.4,15,5%,-0.1,4,-3.7,-28,0

# Remaining list, next part:
SMILES,Ecoli rRNA inh,Ecoli rRNA inh OD600,Ecoli rRNA inh RFP,T cruzi inh,Vif TR-FRET,Bfl-1 A1 inh,Beta cell apopt,RanGTP-Impb inh,MLL AF4-AF9 inh,Calb FLC
O=C(NC1CCN(C(=O)c2cccc([N+](=O)[O-])c2)CC1)c1ccccc1,15,16,-0.4,-10,.,0.2,-2,1.3,1.1,2
COc1ccc(OCc2cc(=O)c3ccc4c(c3o2)C=CC(C)(C)O4)cc1OC,-33,-57,-7.9,.,.,0.2,-9,.,-18,.
O=C(NCc1ccccc1CN1CCCC1)c1cc2cc(Cl)ccc2o1,-7,-9,1.3,.,9%,1.8,8,.,-1.2,.
CNC(=O)Cn1nc(C)c2ccccc2c1=O,.,.,.,-9,8%,0.3,-9,1.1,.,-7
Cn1c(=O)c2c(nc(NCCO)n2CCc2ccccc2)n(C)c1=O,.,.,.,-27,-4%,0.3,0,-6.3,.,-6
COC(=O)C1=C(C(=O)OC)[C@@H]2N(C)c3ccc(OC)cc3[C@@]23C[C@@H](C(=O)OC)N(C(=O)NC2CCCCC2)C3=N1,-2,-10,0.8,1,.,2.8,3,-0.1,1.4,-4
CCCN1CCN(CCCNC(=O)Cn2nc(-c3ccc(C)cc3)ccc2=O)CC1,.,.,.,-14,-2%,0.5,4,4.2,.,-6

# Screens as filed in PubChem.

# The list is partial; count on the stated rates, not on these rows.
